High-throughput results (PubChem BioAssay)
Vif TR-FRET – HIV-1 Vif–A3G interaction blockers – biochemical, TR-FRET, GST-Vif 1-94, biotin-A3G peptide, dose response retest, primary screen (AID 1117319) | TR-FRET GST-Vif / biotin-A3G peptide binding; higher % means a stronger effect; test concentration not given here; strong numbers were not always called active | one-dose inhibition, %; IC50 in µM for titrated hits | 260,000 tested, 0.57% active;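 active = above the screen mean plus three standard deviations and confirmed in dose response; inconclusive = results disagree or hit not tested in dose response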;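 also: Vif residues 1-94 fused to GST binding biotinylated APOBEC3G peptide 110-148; 0% = full assay without inhibitor and 100% = GST in place of GST-Vif; retest series ran down from 100 µM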
LANA-H2B inh – blocks KSHV LANA binding to histone H2A/H2B; 320,000 tested, 0.6% active; AID 2629; inhibition, % (no concentration beside the values); cell-free LANA-H2A/H2B peptide, fluorescence polarization; in the data active = inhibition mostly above about 10%, no sharp cut-off; inactive = mostly below about 6.7%;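 also: stock transfer was 7.5 nL into about 10 µL; 0% = median of vehicle wells and 100% = median of positive control wells; one replicate is shown; the record names a cut of 25% in any replicate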
HNF4A DNA FP – change in binding of human HNF4 alpha to DNA. HNF4a-FITC DNA binding, fluorescence polarization, 1 h. 360,000 tested, 0.3% active. activity change, % at 10 µM. P41235. AID 1224865; in the data active = activity change above about 30%, passing the limit was not always enough;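 also: controls were the assay level and a saturating level of protein; the project sought stronger binding though the title names inhibitors; some compounds called inactive have numbers as strong as hits; positive values seem to mean higher polarization but the record does not say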
Target sequence (P41235 whole entry, looked up): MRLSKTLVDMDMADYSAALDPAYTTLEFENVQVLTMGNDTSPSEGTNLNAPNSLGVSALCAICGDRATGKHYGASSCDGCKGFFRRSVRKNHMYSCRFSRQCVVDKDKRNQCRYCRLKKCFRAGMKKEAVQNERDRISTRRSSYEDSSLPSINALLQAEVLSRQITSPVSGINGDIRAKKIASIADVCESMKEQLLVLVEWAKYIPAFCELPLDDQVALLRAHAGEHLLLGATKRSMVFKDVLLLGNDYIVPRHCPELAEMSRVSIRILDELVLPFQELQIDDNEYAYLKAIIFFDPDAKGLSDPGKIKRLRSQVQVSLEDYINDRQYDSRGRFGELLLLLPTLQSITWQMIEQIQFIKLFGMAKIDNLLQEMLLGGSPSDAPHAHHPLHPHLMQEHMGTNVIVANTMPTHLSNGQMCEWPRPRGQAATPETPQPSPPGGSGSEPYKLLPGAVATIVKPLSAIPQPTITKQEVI
ALR H2O2 inh – inhibitors of human sulfhydryl oxidase ALR. 290,000 tested, 3.8% active. P55789. purified ALR, DTT oxidation, H2O2 HRP-luminol luminescence. inhibition, % (concentration not given with the values);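 active = mean and each replicate at 75% or more; inconclusive = only one of the two met; inactive = neither met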;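 also: stock transfer was 7.5 nL into about 7.5 µL; 0% = neutral wells and 100% = wells with inactivated enzyme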
RanGTP-Impb inh – disruptors of Ran-importin-beta complex formation – biochemical, FRET, CFP-Ran, YFP-importin-beta, homogeneous, primary screen; cell-free CFP-Ran/YFP-importin-beta FRET ratio; inhibition, % (test concentration not listed); 300,000 tested, 1.1% active;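 active = most replicates above 15%; inconclusive = exactly half above 15%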;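 also: 0% = DMSO wells and 100% = Ran loaded with GDP instead of GTP; wells of about 40 µL received 100 nL stock; the first replicate is given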
B2AR ag – activates human beta-2 adrenergic receptor causing internalization; P07550; Am2.2-beta2AR cells, FAP receptor internalization, flow cytometry; reference of the scale not given here; response, % (concentration not given with the values); 340,000 tested, 0.43% active; AID 504454;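 active = response above a set limit, near 3 SD of response in nonfluorescent compounds, cut at about 42% in these data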;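 also: stock transfer was 100 nL into about 11 µL; a reference agonist was the positive control; negative values mostly stem from fluorescent compounds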
Target sequence (P07550 whole entry, looked up): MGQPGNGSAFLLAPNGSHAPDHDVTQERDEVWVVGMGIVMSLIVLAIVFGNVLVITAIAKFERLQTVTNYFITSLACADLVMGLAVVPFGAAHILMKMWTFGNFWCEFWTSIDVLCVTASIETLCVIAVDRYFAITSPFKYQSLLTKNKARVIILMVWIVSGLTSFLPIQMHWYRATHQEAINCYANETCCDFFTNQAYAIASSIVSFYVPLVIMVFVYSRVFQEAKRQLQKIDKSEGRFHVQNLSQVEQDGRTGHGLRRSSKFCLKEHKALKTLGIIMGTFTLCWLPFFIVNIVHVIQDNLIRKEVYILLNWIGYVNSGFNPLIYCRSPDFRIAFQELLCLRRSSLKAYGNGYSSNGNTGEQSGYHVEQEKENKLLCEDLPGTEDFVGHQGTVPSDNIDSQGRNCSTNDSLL
Calb FLC – C. albicans growth modulation with fluconazole. 300,000 tested, 0.57% active. C. albicans CaCi-2 (fluconazole-resistant clinical isolate) + fluconazole, Alamar Blue growth, 48 h. AID 1979. growth inhibition, % (no concentration beside the values);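 active = most replicates above 75%; inconclusive = exactly half above 75%; inactive = most below 75%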;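 also: all wells also contain fluconazole at 8 µg/ml as a sub-toxic cotreatment; 0% = median of DMSO wells and 100% = median of geldanamycin control wells; wells of about 8 µL received 7.5 nL stock; the first replicate is given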
Active calls of the source: *; & = joins results of further samples.

How did C=C(C)CNC(=O)C1CCC(=O)N(CCCc2ccccc2)C1 (centres undefined) do in these assays?
Vif TR-FRET: -8%; LANA-H2B inh: -2.7; HNF4A DNA FP: -3.7; RanGTP-Impb inh: 1.4; B2AR ag: 1; Calb FLC: 3

How did CCCC12CN3CCN(CC(C3)/C1=N\NC(=O)c1ccc(C(C)(C)C)cc1)C2 do in these assays?
Vif TR-FRET: -2%; LANA-H2B inh: -5.2; HNF4A DNA FP: -0.7; ALR H2O2 inh: -2; RanGTP-Impb inh: 0.5; B2AR ag: 17; Calb FLC: 5

How did Cc1ccc(-c2nc3c(=O)n(-c4ccccc4)c4c(c(=O)n(C)c(=O)n4C)c3o2)cc1 do in these assays?
Vif TR-FRET: -18%; LANA-H2B inh: 2.6; HNF4A DNA FP: 0.2; ALR H2O2 inh: -3; RanGTP-Impb inh: 4.7; B2AR ag: 0; Calb FLC: -28

Results for Cc1ccc([N+](=O)[O-])cc1NC(=O)c1ccc(CSc2ccccc2)cc1 ?
Vif TR-FRET: 20%; LANA-H2B inh: 9.9; HNF4A DNA FP: 6.1; ALR H2O2 inh: -2; RanGTP-Impb inh: 2.2; B2AR ag: -1; Calb FLC: -4

What do the screens show for `COc1ccccc1NC(=O)NS(=O)(=O)c1ccc(C)cc1`?
Vif TR-FRET: 8%; LANA-H2B inh: 0.3; HNF4A DNA FP: -3.3; ALR H2O2 inh: -9; RanGTP-Impb inh: 6.7; B2AR ag: 1; Calb FLC: -5

How did CCN(Cc1ccccc1)C(=O)COC(=O)c1cc(S(=O)(=O)Nc2c(C)n(C)n(-c3ccccc3)c2=O)ccc1C do in these assays?
Vif TR-FRET: -1%; LANA-H2B inh: -1.2; HNF4A DNA FP: -1.7; ALR H2O2 inh: -1; RanGTP-Impb inh: -0.1; B2AR ag: -2; Calb FLC: 2

What do the screens show for `CCOc1ccc(NC(=O)C(CC(=O)O)Cc2ccc(Br)cc2)cc1` (centres undefined)?
LANA-H2B inh: -2.9; HNF4A DNA FP: 1.4; ALR H2O2 inh: -4; RanGTP-Impb inh: -1.8; B2AR ag: -1; Calb FLC: 5

How did O=C(Nc1cccc(F)c1)c1cccc(S(=O)(=O)N2CCOCC2)c1 do in these assays?
Vif TR-FRET: 9%; LANA-H2B inh: 1.5; HNF4A DNA FP: -1.6; ALR H2O2 inh: -5; RanGTP-Impb inh: 0.6; B2AR ag: -2; Calb FLC: -5

How did CCOC(=O)C1(Cc2cccc(F)c2)CCN(C(=O)C2CCCO2)CC1 (centres undefined) do in these assays?
Vif TR-FRET: inconclusive; LANA-H2B inh: -5.1; HNF4A DNA FP: 0.0; ALR H2O2 inh: 4; RanGTP-Impb inh: -0.6; B2AR ag: 0; Calb FLC: 43

Results for Cc1c(CN2CCCC(CO)(Cc3cccc(Cl)c3)C2)cnn1C (centres undefined) ?
Vif TR-FRET: -9%; LANA-H2B inh: 2.1; HNF4A DNA FP: -4.3; ALR H2O2 inh: -3; RanGTP-Impb inh: -0.5; B2AR ag: 3; Calb FLC: 42

Results for COc1ccc(C(=O)c2c(-c3ccc(OC)cc3)oc3ccc(-c4ccc(OC)nc4)cc23)cc1 ?
LANA-H2B inh: -9.6; HNF4A DNA FP: -0.2; ALR H2O2 inh: 5; RanGTP-Impb inh: 2.8; B2AR ag: 8; Calb FLC: -2

What do the screens show for `CCN(CC)S(=O)(=O)c1cccc(NC(=O)C2SC(=Nc3ccc(C)cc3C)C(C(=O)NCC3CCCO3)=C2N)c1` (centres undefined)?
Vif TR-FRET: 3%; LANA-H2B inh: 6.3; HNF4A DNA FP: -1.4; ALR H2O2 inh: -25; RanGTP-Impb inh: 1.0; B2AR ag: 2; Calb FLC: -4

What do the screens show for `O=C(CSc1nc2ccccc2n1CC(=O)NCc1ccccc1)NCc1ccco1`?
Vif TR-FRET: 8%; LANA-H2B inh: 0.1; HNF4A DNA FP: 0.0; ALR H2O2 inh: -4; RanGTP-Impb inh: 6.5; B2AR ag: -1; Calb FLC: -5

Results for O=C(Cn1c(=O)c2cccn2c2ccccc21)NCCc1ccccc1 ?
LANA-H2B inh: -0.8; HNF4A DNA FP: 3.2; ALR H2O2 inh: -6; RanGTP-Impb inh: 2.2; B2AR ag: -2; Calb FLC: -9

Results for c1ccc2c(c1)ncn2Cc1nnc2sc(-c3ccc4c(c3)OCO4)nn12 ?
Vif TR-FRET: -14%; LANA-H2B inh: -13; HNF4A DNA FP: 1.1; ALR H2O2 inh: -10; RanGTP-Impb inh: 10; B2AR ag: 11; Calb FLC: 6

How did COc1cccc(C(=O)CN2C(=O)C(C)(C)Oc3ccc(C(=O)N4CCOCC4)cc32)c1 do in these assays?
LANA-H2B inh: 0.7; HNF4A DNA FP: 2.7; ALR H2O2 inh: -3; RanGTP-Impb inh: -2.7; B2AR ag: -11; Calb FLC: -5

What do the screens show for `CCC1CCCCN1CC(=O)c1c(C)[nH]c2ccc(OC)cc12` (centres undefined)?
Vif TR-FRET: -4%; LANA-H2B inh: -3.3; HNF4A DNA FP: 4.3; ALR H2O2 inh: -12; RanGTP-Impb inh: 1.0; B2AR ag: 1; Calb FLC: -9

Results for COC(=O)c1cnc(N)s1 ?
Vif TR-FRET: -2%; HNF4A DNA FP: -1.5; B2AR ag: 4

What do the screens show for `CN(CCc1ccccc1)C(=O)c1ccc(NC(=O)Cc2cccc(NC(=O)C3CCN(C(=O)C4CCC4)CC3)c2)cc1`?
Vif TR-FRET: 3%; HNF4A DNA FP: -2.2; B2AR ag: -6

What do the screens show for `CCN(CC(=O)Nc1ccc(NC(C)=O)cc1)C(=O)CSC(=S)N1CCCC1`?
Vif TR-FRET: -1%; HNF4A DNA FP: 3.5; ALR H2O2 inh: 0; B2AR ag: -2

How did O=C(CCC(=O)Nc1ccccc1)N/N=C/c1ccc2c(c1)OCO2 do in these assays?
LANA-H2B inh: -3.9; HNF4A DNA FP: -1.2; ALR H2O2 inh: -1; RanGTP-Impb inh: -0.3; B2AR ag: -1; Calb FLC: 1

Results for COc1ccc(-c2nnc(-c3ccc(C)cc3)o2)cc1 ?
Vif TR-FRET: -8%; LANA-H2B inh: -2.8; HNF4A DNA FP: -0.2; ALR H2O2 inh: -5; RanGTP-Impb inh: -4.3; B2AR ag: -3; Calb FLC: 2

What do the screens show for `CCOC(=O)C1CCN(C(=O)C2CCN(S(=O)(=O)N3CCCC3)CC2)CC1`?
Vif TR-FRET: 1%; LANA-H2B inh: 1.1; HNF4A DNA FP: -3.6; ALR H2O2 inh: -4; RanGTP-Impb inh: -0.4; B2AR ag: -4; Calb FLC: 23

Results for C[C@@H]1O[C@@H](OC[C@H]2O[C@@H](Oc3cc(O)c4c(=O)cc(-c5ccc(O)c(O)c5)oc4c3)[C@H](O)[C@@H](O)[C@@H]2O)[C@H](O)[C@H](O)[C@H]1O ?
LANA-H2B inh: 6.8; HNF4A DNA FP: 1.4; ALR H2O2 inh: 99*; B2AR ag: 0

What do the screens show for `Cc1ccc(C(C)(O)CS(=O)(=O)Cc2ccccc2Cl)cc1` (centres undefined)?
Vif TR-FRET: 0%; LANA-H2B inh: -1.4; HNF4A DNA FP: -1.4; ALR H2O2 inh: -7; RanGTP-Impb inh: -1.4; B2AR ag: 8; Calb FLC: -3

What do the screens show for `O=C(COC(=O)CCS(=O)(=O)c1ccccc1)Nc1ccc(N2CCCCC2)cc1`?
Vif TR-FRET: 7%; LANA-H2B inh: -1.9; HNF4A DNA FP: 1.5; B2AR ag: 1

What do the screens show for `O=C(CN1C(=O)c2ccccc2C1=O)NCC(=O)OCC(=O)c1ccc(Cl)cc1`?
Vif TR-FRET: -5%; LANA-H2B inh: 2.6; HNF4A DNA FP: 2.7; RanGTP-Impb inh: -0.6; B2AR ag: 0; Calb FLC: -15

What do the screens show for `CCOC(=O)N1CCN(C(=O)CCc2ccc(S(=O)(=O)NCCc3ccccc3)cc2)CC1`?
Vif TR-FRET: -2%&-2%; LANA-H2B inh: -2.6; HNF4A DNA FP: -1.9; ALR H2O2 inh: -6; RanGTP-Impb inh: 2.2; B2AR ag: 11; Calb FLC: 1

Results for CCCc1c(C(=O)Nc2ccc(C(F)(F)F)cc2)cnn1-c1ccccc1 ?
LANA-H2B inh: -1.0; HNF4A DNA FP: -2.6; RanGTP-Impb inh: 3.5; B2AR ag: 2; Calb FLC: -4

What do the screens show for `COc1ccccc1N1C(=NC(=O)C(C)Oc2ccccc2)SC2CS(=O)(=O)CC21` (centres undefined)?
LANA-H2B inh: 1.5; HNF4A DNA FP: -4.9; ALR H2O2 inh: 1; RanGTP-Impb inh: 2.0; B2AR ag: -5; Calb FLC: -4

Results for Cc1cccc(N2CCN(C3CCCCC3NS(=O)(=O)c3ccccc3)CC2C)c1 (centres undefined) ?
LANA-H2B inh: -6.2; HNF4A DNA FP: -6.5; ALR H2O2 inh: -3; RanGTP-Impb inh: 1.0; B2AR ag: 9; Calb FLC: -6

Results for O=C(Cc1cccc2ccccc12)NNC(=O)c1cccs1 ?
Vif TR-FRET: -8%; LANA-H2B inh: 0.5; HNF4A DNA FP: -2.4; ALR H2O2 inh: -2; RanGTP-Impb inh: 1.7; B2AR ag: 14; Calb FLC: 5

How did Nc1nc(-c2ccc(Cl)cc2)cn1N do in these assays?
Vif TR-FRET: 1%; LANA-H2B inh: -8.6; HNF4A DNA FP: 0.4; RanGTP-Impb inh: 4.8; B2AR ag: 7; Calb FLC: 6

Results for O=C(O/N=C1\CCCc2ccccc21)C1CC1 ?
Vif TR-FRET: -4%; LANA-H2B inh: 0.4; HNF4A DNA FP: 3.1; ALR H2O2 inh: -1; RanGTP-Impb inh: 1.6; B2AR ag: 5; Calb FLC: -1

Results for CCNC(=O)C/C(C)=N/NC(=O)C(=O)Nc1ccc(CC)cc1 ?
Vif TR-FRET: -2%; LANA-H2B inh: 4.8; HNF4A DNA FP: 2.6; ALR H2O2 inh: -8; RanGTP-Impb inh: 0.1; B2AR ag: 2; Calb FLC: 21

What do the screens show for `Cc1ccc(S(=O)(=O)Oc2ccccc2[N+](=O)[O-])cc1`?
Vif TR-FRET: 2%; HNF4A DNA FP: -3.6; B2AR ag: -8

Results for NC(Cc1c[nH]c2ccccc12)C(=O)Nc1ccccc1 (centres undefined) ?
LANA-H2B inh: 4.0; HNF4A DNA FP: 1.4; ALR H2O2 inh: 13; RanGTP-Impb inh: 7.6; B2AR ag: 7; Calb FLC: 0

What do the screens show for `Clc1ccccc1CN1CCC(Cc2ccccc2)CC1`?
LANA-H2B inh: -1.1; HNF4A DNA FP: 3.8; RanGTP-Impb inh: 2.9; B2AR ag: 0; Calb FLC: -13

What do the screens show for `CCS(=O)(=O)C1=NSC2=NC(=O)/C(=C\c3ccc(OC(=O)c4ccco4)c(OC)c3)C(=N)N21`?
LANA-H2B inh: -8.7; HNF4A DNA FP: 44*; ALR H2O2 inh: 53; RanGTP-Impb inh: 3.8; B2AR ag: 16; Calb FLC: 15

Results for CC1CN(c2nc(-c3ccccc3)nc3ccccc23)CC(C)O1 (centres undefined) ?
Vif TR-FRET: 17%; LANA-H2B inh: -1.9; HNF4A DNA FP: 2.7; ALR H2O2 inh: 11; RanGTP-Impb inh: 3.6; B2AR ag: -3; Calb FLC: inconclusive

What do the screens show for `O=C(NCc1cccnc1)c1ccc(Cl)c(S(=O)(=O)N2CCOCC2)c1`?
Vif TR-FRET: -3%; LANA-H2B inh: 5.9; HNF4A DNA FP: 1.4; ALR H2O2 inh: -3; RanGTP-Impb inh: 0.3; B2AR ag: 3; Calb FLC: 4
